Beta cell apopt: blocks beta cell apoptosis; 300,000 tested, 0.8% active; protection from apoptosis, % (test concentration not listed); INS-1E cytokine-induced death, ATP luminescence, 48 h; percent of positive-control rescue, neutral wells zero;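 active means all replicates at 75% or more, or half of them and the mean; inconclusive means half reach 75% but not the mean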;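 further: 0% = cytokine-treated negative control wells and 100% = positive control rescue; higher means more ATP so stronger rescue from cytokine killing; wells of about 40 µL received 100 nL stock; the first replicate is given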
Vif A3G: HIV-1 Vif–A3G interaction blockers – biochemical, TR-FRET, GST-Vif 1-94, biotin-A3G peptide, dose response retest, primary screen (AID 1117319). TR-FRET GST-Vif / biotin-A3G peptide binding; higher % means a stronger effect; test concentration not given here; strong numbers were not always called active. inhibition, %, or IC50 in µM where a hit was titrated. 260,000 tested, 0.57% active;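 active means above the screen mean plus three standard deviations and confirmed in dose response; inconclusive means results disagree or hit not tested in dose response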;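 further: Vif residues 1-94 fused to GST binding biotinylated APOBEC3G peptide 110-148; 0% = full assay without inhibitor and 100% = GST in place of GST-Vif; retest series ran down from 100 µM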
Bfl-1 A1 inh: inhibitors of the anti-apoptotic protein A1, read as caspase activation | MEF A1-2A-BIM cells, Caspase-Glo 3/7 luminescence, 3 h; percent of clofoctol response, vehicle zero | caspase activation, % (concentration not given with the values) | 330,000 tested, 0.066% active | AID 2462;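 active means over half of replicate activation scores above 10%, or exactly half above 10 with the replicate mean above 10; inconclusive means replicate mean below 10 yet half the replicates above 10; inactive means over half of replicates below 10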;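 further: wells of about 30 µL received 50 nL stock; many hits fall short of the cut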
RanGTP-Imp inh: disruptors of Ran-importin-beta complex formation – biochemical, FRET, CFP-Ran, YFP-importin-beta, homogeneous, primary screen; cell-free CFP-Ran/YFP-importin-beta FRET ratio; 300,000 tested, 1.1% active; inhibition, % (concentration not given with the values);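 active means most replicates above 15%; inconclusive means exactly half above 15%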;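 further: 0% = DMSO wells and 100% = Ran loaded with GDP instead of GTP; wells of about 40 µL received 100 nL stock; the first replicate is given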
Calb FLC: C. albicans growth modulation with fluconazole. 300,000 tested, 0.57% active. growth inhibition, % (no concentration beside the values). C. albicans CaCi-2 (fluconazole-resistant clinical isolate) + fluconazole, Alamar Blue growth, 48 h;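 active means most replicates above 75%; inconclusive means exactly half above 75%; inactive means most below 75%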;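 further: all wells also contain fluconazole at 8 µg/ml as a sub-toxic cotreatment; 0% = median of DMSO wells and 100% = median of geldanamycin control wells; wells of about 8 µL received 7.5 nL stock; the first replicate is given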
AF4-AF9 inh: blocks AF4 peptide binding to human AF9; P42568; AlphaScreen, biotin-AF4 peptide binding to FLAG-AF9; inhibition, % at 10 µM; 350,000 tested, 0.47% active; AID 651704;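 active means every replicate reaching a set inhibition limit, whatever the replicate mean, cut at about 25% in these data; inconclusive means mean inhibition reaches that limit but some replicates miss it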;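 further: 0% = plate neutral control median and 100% = total signal loss; the record names both 10 and 1 µM as test concentration; the first replicate is given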
T cruzi repl: T. cruzi replication inhibition; 300,000 tested, 1.4% active; T. cruzi beta-gal in NIH3T3, luminescence, 90 h; inhibition, % (concentration not given with the values); AID 1885;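 active means mean inhibition across valid replicates above about 55%, limit read from the data; inconclusive means mean below that limit but half or more replicates reach it; inactive means mean below it, under half of replicates reach it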;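 further: signal also drops with host cell toxicity which is not excluded here; 0% = plate median of DMSO wells and 100% = zero luminescence signal; higher percent means less beta-gal luminescence so fewer parasites; stock transfer was 50 nL into about 50 µL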
LANA-H2B inh: blocks KSHV LANA binding to histone H2A/H2B. cell-free LANA-H2A/H2B peptide, fluorescence polarization. Q9QR71. inhibition, % (concentration not given with the values). AID 2629. 320,000 tested, 0.6% active; in the data active means inhibition mostly above about 10%, no sharp cut-off; inactive means mostly below about 6.7%;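 further: stock transfer was 7.5 nL into about 10 µL; 0% = median of vehicle wells and 100% = median of positive control wells; one replicate is shown; the record names a cut of 25% in any replicate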
Target sequence (Q9QR71 whole entry, looked up): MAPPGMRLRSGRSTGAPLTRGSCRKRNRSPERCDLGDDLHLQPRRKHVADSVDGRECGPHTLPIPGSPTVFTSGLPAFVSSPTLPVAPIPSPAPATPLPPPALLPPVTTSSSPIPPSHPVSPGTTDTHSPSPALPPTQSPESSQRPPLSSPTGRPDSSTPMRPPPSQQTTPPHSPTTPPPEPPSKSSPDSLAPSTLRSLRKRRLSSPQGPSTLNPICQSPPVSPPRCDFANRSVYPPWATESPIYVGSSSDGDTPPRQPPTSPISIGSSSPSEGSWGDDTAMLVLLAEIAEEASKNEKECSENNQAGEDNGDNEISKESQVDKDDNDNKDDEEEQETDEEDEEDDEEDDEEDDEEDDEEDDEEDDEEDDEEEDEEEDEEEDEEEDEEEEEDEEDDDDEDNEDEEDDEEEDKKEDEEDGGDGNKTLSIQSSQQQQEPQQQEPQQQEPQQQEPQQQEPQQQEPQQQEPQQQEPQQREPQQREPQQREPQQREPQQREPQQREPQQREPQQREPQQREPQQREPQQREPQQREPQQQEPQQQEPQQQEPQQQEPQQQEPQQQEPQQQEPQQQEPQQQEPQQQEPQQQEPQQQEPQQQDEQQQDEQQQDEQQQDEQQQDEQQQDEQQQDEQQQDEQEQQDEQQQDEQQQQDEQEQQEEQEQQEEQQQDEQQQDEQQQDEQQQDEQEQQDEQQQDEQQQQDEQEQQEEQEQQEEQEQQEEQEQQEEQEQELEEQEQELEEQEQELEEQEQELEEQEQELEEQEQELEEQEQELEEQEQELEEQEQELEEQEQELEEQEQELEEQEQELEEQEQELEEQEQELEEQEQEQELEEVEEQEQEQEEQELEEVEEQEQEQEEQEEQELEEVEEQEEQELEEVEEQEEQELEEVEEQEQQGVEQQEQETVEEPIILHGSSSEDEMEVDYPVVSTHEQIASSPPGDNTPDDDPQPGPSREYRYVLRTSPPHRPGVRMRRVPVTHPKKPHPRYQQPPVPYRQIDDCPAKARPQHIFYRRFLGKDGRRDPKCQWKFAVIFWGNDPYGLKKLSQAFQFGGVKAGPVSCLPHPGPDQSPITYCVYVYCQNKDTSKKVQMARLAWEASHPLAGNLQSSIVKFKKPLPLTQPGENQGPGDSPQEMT
Active calls of the source: *; u = inconclusive; x = no result given.

SMILES	Beta cell apopt	Vif A3G	Bfl-1 A1 inh	RanGTP-Imp inh	Calb FLC	AF4-AF9 inh	T cruzi repl	LANA-H2B inh
CC(C)(C)c1ccc(OCCNCc2ccccc2)cc1	-1	x	0.6	-2.3	13	-4.0	7	0.5
CC(/C=C/c1ccc(Cl)o1)=C\C(=O)O	-1	27%	-1.3	-1.7	-2	x	-4	-2.3
CCOC(=O)NCN1C(=O)C2C3C=CC(C3)C2C1=O (stereo not given)	-8	1%	0.4	-2.8	0	x	-18	5.7
CC(C)(O)C(=O)NNC(=S)NCc1ccco1	0	-5%	0.5	2.2	24	-11	-20	-7.4
O=C1Nc2cc(C(=O)N3CCN(c4ccccc4F)CC3)ccc2NC1CSCc1ccccc1F (stereo not given)	-5	x	-0.1	5.6	3	x	1	5.4
O=C(O)C1=C[C@H](c2csc3ccccc23)C[C@H](OCc2ccc(CO)cc2)O1	-1	6%	-0.8	-0.7	-12	0.8	4	0.4
CC1(C)CC(NC(=O)c2ccccc2F)CC(C)(C)N1	-2	-1%	0.5	4.4	6	-3.6	-1	4.5
Cc1cccc(N2CCN(c3ccc4cc(S(=O)(=O)N5CCCCC5)ccc4n3)CC2C)c1 (stereo not given)	5	x	0.1	0.4	-6	-2.1	32	3.9
CCN(CC)C(=O)CSC(Nc1cccc(F)c1)=C(C#N)C#N	-1	2%	-0.1	8.8	-2	6.6	-9	-2.0
CCOc1ccc(/C=N/OC(C)C(=O)NCc2ccc3c(c2)OCO3)cc1 (stereo not given)	-4	x	-0.7	-0.8	-57	0.5	14	-0.1
O=C(Nc1ncccc1O)c1ccc(Oc2ccccc2)cc1	-3	-2%	0.2	0.0	8	-1.5	8	1.8
COc1cccc(NC(=O)C(C)N2C(=O)c3ccccc3C2=O)c1 (stereo not given)	-13	x	0.4	u	2	-5.7	-8	-2.1
N#Cc1cc(-c2cccc(Cl)c2)c[nH]c1=O	0	13%	-0.3	2.1	-2	x	-24	2.0
COc1ccc(C(=O)C(OC(=O)c2ccccc2Cl)c2ccccc2)cc1 (stereo not given)	9	-2%	0.7	u	-1	x	1	-3.5
CCOc1cc(CNCCCN2CCOCC2)cc(Br)c1OCc1ccccc1Cl	17	-8%	0.6	8.1	1	19	80*	0.1

Next part; it opens with the 2 that closed the last part.
SMILES	Beta cell apopt	Vif A3G	Bfl-1 A1 inh	RanGTP-Imp inh	Calb FLC	AF4-AF9 inh	T cruzi repl	LANA-H2B inh
COc1ccc(C(=O)C(OC(=O)c2ccccc2Cl)c2ccccc2)cc1 (stereo not given)	9	-2%	0.7	u	-1	x	1	-3.5
CCOc1cc(CNCCCN2CCOCC2)cc(Br)c1OCc1ccccc1Cl	17	-8%	0.6	8.1	1	19	80*	0.1
CNc1ccc(/C=C/C(=O)c2ccc(C)cc2)cc1[N+](=O)[O-]	2	x	0.6	-3.1	-2	8.4	16	-2.8
Cc1cc(C)c(OCC(=O)N(C)CC(=O)Nc2ccc(N3CCOCC3)cc2)c(C)c1	1	x	1.3	-1.5	-6	0.3	6	1.3
[O-]/C(=C(\C(=S)NCc1ccco1)[n+]1ccccc1)c1ccccc1Br	-6	u	-0.2	2.8	-5	x	-7	0.0
O=C(NCCc1c[nH]c2ccccc12)C(=O)NCC(c1ccco1)N1CCN(c2ccccc2F)CC1 (stereo not given)	5	-6%	-1.1	0.5	-12	x	20	-5.6
Cc1ccc(S(=O)(=O)Nc2cccnc2)cc1C	-4	x	-0.3	3.7	5	-3.3	4	-5.3
CCC(C)(C)n1nnnc1C(c1ccc(OC)c(OC)c1)N1CCN(c2ccc(F)cc2)CC1 (stereo not given)	-3	u	-0.3	4.7	-19	x	0	0.9
COc1ccc(Cc2[nH]n3c(=O)cc(C)nc3c2-c2ccccc2)cc1	-5	10%	0.0	-2.6	2	0.2	0	2.2
Cc1ccc(C)c(/C=N/NC(=S)NC(C)C)c1	x	0%	-0.6	-2.7	-1	x	7	0.4
COc1ccc(OC)c(-c2c[n+](=O)c3c(n2[O-])CCCC3)c1	-2	-3%	0.7	0.9	0	x	4	3.2
COC(=O)CCC(=O)NNC(=O)c1cccc(Br)c1	x	-2%	0.8	2.7	-1	x	-9	-1.7
O=C(CSc1nc2c(sc3ccccc32)c(=O)n1CCO)NCc1ccco1	-5	24%	-1.1	3.3	-6	x	8	-6.9
Cc1ccc2ncccc2c1NC(=S)NC(=O)c1ccccc1	-4	17%	0.3	-0.4	14	0.3	-17	2.0
COc1ccc(OC)c(NC(=O)CSc2nnc(C3CCCCC3)n2N)c1	x	-2%	-0.3	0.1	6	5.8	5	-0.6
CCCNC(=O)c1ccccc1NC(=O)COc1cccc2c1OC(C)(C)C2	-4	-9%	-0.3	0.0	2	-0.9	10	x
O=C(NCCc1c[nH]c2ccccc12)C1CCN(Cc2ccc(Br)cc2)CC1	-12	x	-0.7	-5.5	-10	1.7	11	5.0
CC(c1ccccc1)n1c(Br)nc2c1c(=O)[nH]c(=O)n2C (stereo not given)	-11	x	0.0	-1.2	2	-8.3	-17	4.8
COC(=O)C1(CCSC)NC(c2ccccc2OC)C2C(=O)N(C)C(=O)C21 (stereo not given)	-4	2%	1.3	-0.7	9	x	-7	0.0
COc1cccc(C(=O)NNC(=O)C2CC(C)=C(C)CC2C(=O)O)c1 (stereo not given)	x	3%	-0.4	-0.5	-4	x	15	0.2
CCOc1cccc2sc(N(CCCN(C)C)C(=O)c3ccc(S(=O)(=O)N(C)c4ccccc4)cc3)nc12	-13	-3%	0.4	-0.2	-11	12	56*	-0.9
C/C(=N\NC(=O)CNC(=O)C1COc2ccccc2O1)c1ccc(Cl)cc1 (stereo not given)	-1	3%	-0.5	0.4	-1	0.4	24	5.7
COc1ccc(-n2cnnc2SCC(=O)Nc2cccnc2Cl)cc1	-4	x	0.5	0.7	-19	-1.6	-8	-2.8
CCOC(=O)CNC(=O)c1ccc2c(c1)OCCO2	-2	0%	-2.1	1.4	10	x	-7	-4.0
CN(CCC#N)C(=O)COC(=O)c1ccc(Cl)c(S(=O)(=O)N(C)c2ccccc2)c1	-2	x	1.2	1.8	-1	3.2	-5	-4.4
CCCOC(=O)CCn1c(=S)oc2ccccc21	-3	4%	0.3	1.7	25	x	-3	3.1
CS(=O)(=O)N1CCCC(C(=O)Nc2ccc(F)c(F)c2)C1 (stereo not given)	-2	x	-0.6	x	x	-4.2	x	4.6
CN1CCN(c2nc(-c3ccc(Cl)c(Cl)c3)nc3ccccc23)CC1	4	-3%	1.1	3.1	7	x	35	0.4
Cc1ccc(-c2n[nH]c(=S)n2/N=C/c2sccc2C)cc1	-5	-1%	0.4	2.8	9	x	-10	0.7
Cc1cccc(C(=O)Nc2ccccc2NC(=O)c2cccc(C)c2)c1	1	-1%	-0.4	2.1	11	0.5	-3	-0.9
O=C(CN1CCCC1=O)NC1CCCc2c1cnn2-c1cc(F)cc(F)c1 (stereo not given)	0	x	-0.7	1.0	1	-1.6	-3	0.1
COc1cc(Br)cc2cc(C(=O)OC3CCN(C)CC3)c(=O)oc12	x	-7%	-0.1	-0.5	-27	x	21	0.8
CN1CCC(N(C)S(=O)(=O)c2ccc(NC(=O)c3cccc(C#N)c3)cc2)CC1	-3	-16%	0.9	x	x	-9.8	x	5.0
Cc1cccc(-n2ncc3c(N4CC(C)CC(C)C4)ncnc32)c1 (stereo not given)	x	u	0.2	-4.2	-5	-6.9	14	1.0
O=S1(=O)CCOC[C@H](c2ccccc2)N1Cc1cccc(F)c1	6	x	-0.5	1.9	-4	1.8	-3	0.4
Cc1c2c(n3c(nc4ccccc43)c1C#N)N(CCN1CCOCC1)CC2	8	-6%	-0.3	112*	-21	-3.2	5	5.5
Cc1nc2c(-c3ccc(Cl)cc3)c(C)[nH]n2c(=O)c1Cc1ccccc1	98*	-10%	0.7	6.8	-4	7.1	63*	-2.6
O=C(CSc1nnc(SCc2ccc(Cl)cc2)s1)N/N=C/c1c[nH]c2ccccc12	6	x	0.0	1.9	-6	x	-10	x
CNC(=S)N1N=C(c2ccc(C)cc2)CC1c1ccc(OC)cc1 (stereo not given)	9	-13%	-0.3	-0.4	7	x	23	5.2
O=C(CSc1nnc2ccc(-c3ccc(Br)cc3)nn12)NCC1CCCO1 (stereo not given)	6	2%	u	0.5	1	-1.7	-13	3.5
CCO[C@@H]1OC(C(N)=O)=C[C@H](c2coc3ccccc3c2=O)[C@H]1CCCO	-2	x	1.6	-7.5	-7	-11	-27	1.4
CCc1ccc(C(=O)COc2ccc(NC(C)=O)cc2)cc1	-6	2%	0.2	-6.1	-16	x	15	7.1
CC(=O)Nc1ccc(C(=O)CSc2nnc(-c3ccc(O)cc3)n2CC2CCCO2)cc1 (stereo not given)	-8	15%	0.8	3.5	9	8.0	10	-2.4
Cc1cc(C)cc(NC(=S)NCC2CCCO2)c1 (stereo not given)	0	0%	0.2	0.6	3	x	-31	5.1
CC(CCc1ccccc1)NC(=O)COC(=O)c1ccc([N+](=O)[O-])cc1 (stereo not given)	3	-10%	-0.2	-0.4	-10	-13	-3	-0.3
O=C(O)c1ccccc1NS(=O)(=O)c1ccc2ccccc2c1	-4	27%	0.0	2.3	-3	-6.8	-10	-2.4
COc1ccc(CNc2nc3c(c(=O)[nH]c(=O)n3C)n2CCCc2ccccc2)cc1	3	4%	-0.5	0.9	-12	x	16	-0.2
COC(=O)C(NC(=O)CN1C(=O)c2ccccc2C1=O)c1ccc(O)c(OC)c1 (stereo not given)	1	-1%	1.4	0.0	-11	-6.9	-8	0.8
Cc1ccc(C)c(NC(=S)N2C3CCCC2CC(NC(=O)C2CC2)C3)c1 (stereo not given)	-5	x	-0.2	1.4	-2	4.1	-6	-1.0
CC(C)Cc1nnc(NC(=O)Nc2ccccc2)s1	1	u	-0.4	2.6	16	1.8	-6	2.4
Cc1ccc(/C=C/c2nnc(-c3ccc(C)cc3)o2)cc1	7	7%	-2.4	-1.5	-3	x	-9	-5.3
CCOC(=O)Cn1c(=O)oc2cc(S(=O)(=O)NC3CCCc4ccccc43)ccc21 (stereo not given)	4	7%	-0.4	4.8	1	1.1	-5	5.4
COc1ccc(C(=O)Nc2ccccc2C(=O)N2CCOCC2)cc1Br	-19	x	0.0	-3.5	8	-0.5	-7	-0.8
CC(=O)Nc1cccc(-c2cnc3ccccc3n2)c1	-9	32%	0.0	-3.6	22	x	-5	4.9
COc1ccc(OCC(=O)OCC(=O)NCC2CCCCC2)cc1	-8	-2%	-0.1	x	x	-5.7	x	-2.7
COCC(=O)Nc1cc(OC)cc(OC)c1	-4	0%	0.7	1.4	-8	x	-6	4.4
CC(=O)Nc1ccc(NC(=O)CSc2ccc3nnc(CCNS(=O)(=O)c4ccc(C)cc4)n3n2)cc1	-8	5%	0.0	2.4	77*	-0.1	-20	7.5
CCOc1ccc(NC(=O)NCc2ccc3c(c2)OCO3)cc1	-5	x	-0.1	9.2	-25	0.6	1	1.2
C=C(C)CN(CC)C(=O)Cn1cnc2c(oc3ccccc32)c1=O	3	x	-2.2	1.1	2	-10	-11	-2.9
